StopGo reporter: High Throughput Screening for Foot and Mouth Disease Virus Antivirals; hit rate 1.2% among 410,000; Potency, µM (highest dose often 57.9 µM), for the others: at the top dose signal change, negative = less light; human cells with a luciferase reporter of 2A StopGo recoding; control for the full effect not named in the record; active = well fitted falling curve with a large enough effect; inconclusive = small, poorly fitted or top-dose-only effect; inactive = no such curve, though single readings can be large or run the other way; tested in HEK293T cells; also: % is scaled to controls: 0 for no effect and ±100 for the full control effect; nearly all actives have a fitted effect of over 45% in size; luciferase light after 4 h
MARV entry inh: qHTS for inhibitors of binding or entry into cells for Marburg Virus; AID 540276, 2011; Marburg virus pseudotyped entry inhibition, cell reporter; control for the full effect not named in the record; about a third of the inactives were read at about 46 µM; Potency, µM (series often up to 37.8 µM), inactives show top-dose activity change, negative = inhibition, actives largely listed as inhibitors; hit rate 1.8% among 300,000; active = well fitted inhibition curve with a large enough effect; inconclusive = small, poorly fitted or top-dose-only effect, or effect the other way; inactive = flat fitted curve, though single readings scatter; tested in HEK293 cells; about a fifth of its hits are not listed in these tables; also: % is scaled to controls: 0 for no effect and ±100 for the full control effect; luciferase read-out
SARS PLP yeast: qHTS of Yeast-based Assay for SARS-CoV PLP | S. cerevisiae expressing SARS-CoV PLpro, growth rescue; control for the full effect not named in the record | Potency, µM (top dose mostly 32.9 µM), for the others: at the highest dose activity, positive = growth rescue | hit rate 0.19% among 330,000; active means well fitted rising curve with a large enough effect; inconclusive means small, poorly fitted or top-dose-only effect; inactive means no such curve, though single readings can be large or run the other way; also: 0% is about no effect; nearly all actives have a fitted effect of over 55% in size; growth read by luminescence after 48 h
Cruzain inh noDet: qHTS Assay for Promiscuous and Specific Inhibitors of Cruzain (without detergent). Potency, µM, for inactives: max response, negative = inhibition, most hits filed as inhibitors. AID 1476, 2009. Cruzipain (Trypanosoma cruzi), P25779. hit rate 2.3% among 200,000. purified cruzain, Z-FR-AMC fluorescence, no detergent;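 also: plate controls were enzyme without inhibitor for no effect and buffer without enzyme for full effect; nearly all actives have a fitted effect of over 40% in size; top concentration of the series not given in the record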
Target sequence (P25779 123-467 limits assumed): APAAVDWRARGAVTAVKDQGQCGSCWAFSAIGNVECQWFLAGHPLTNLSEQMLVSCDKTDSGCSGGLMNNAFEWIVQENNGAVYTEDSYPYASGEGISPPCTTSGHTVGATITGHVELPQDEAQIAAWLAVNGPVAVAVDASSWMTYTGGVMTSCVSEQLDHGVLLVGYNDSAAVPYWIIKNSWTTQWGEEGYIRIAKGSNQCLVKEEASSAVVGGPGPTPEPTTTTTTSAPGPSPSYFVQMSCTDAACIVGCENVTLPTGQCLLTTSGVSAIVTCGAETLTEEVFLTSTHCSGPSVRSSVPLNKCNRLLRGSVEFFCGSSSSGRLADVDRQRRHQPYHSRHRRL
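Purified cruzain at 1.5 nM, pre-incubated 15 min with compound at room temperature in 100 mM sodium acetate pH 5.5, 5 mM DTT, 0.00005% Triton X-100. Reaction started with 2 uM Z-FR-AMC; AMC fluorescence increase over 60 s gives rate.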
NS1 function inh: qHTS Assay for Inhibitors of Influenza NS1 Protein Function; S. cerevisiae slowed by influenza A NS1, growth recovery by OD600; Potency, µM (doses to about 46.1 µM), inactives show top-dose activity, positive = more growth; hit rate 0.4% among 270,000; AID 2326, 2010; active means well fitted rising curve with a large enough effect; inconclusive means small, poorly fitted or top-dose-only effect; inactive means no such curve, though single readings can be large or run the other way; also: nearly all actives have a fitted effect of over 50% in size
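Read-out: OD600 growth recovery of NS1-expressing budding yeast. Cells grown overnight at 30C in -URA glucose medium, washed, resuspended and diluted 1:100 in 2% galactose assay medium, pH 6.0. Same strain lacking NS1 served as positive control.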
LASV entry inh: qHTS for Inhibitors of binding or entry into cells for Lassa Virus | hit rate 1.2% among 300,000 | Lassa virus pseudotype entry inhibition, cell reporter; control for the full effect not named in the record | Potency, µM (doses to about 37.9 µM), for the others: at the highest dose activity change, negative = inhibition, usual class: inhibitors; active means well fitted inhibition curve with a large enough effect; inconclusive means small, poorly fitted or top-dose-only effect, or effect the other way; inactive means flat fitted curve, though single readings scatter; tested in HEK293 cells; also: % is scaled to controls: 0 for no effect and ±100 for the full control effect; nearly all actives have a fitted effect of over 50% in size; luciferase read-out
RE007 growth inh: qHTS Assay for Inhibitors of the HIV-1 protein Vpr; Potency, µM (titrated, usually from 92.2 µM), for the others: at the top dose activity change, negative = less growth; S. pombe RE007 Vpr strain, BacTiter-Glo ATP luminescence, 24 h; control for the full effect not named in the record; hit rate 0.21% among 360,000; active = well fitted falling curve with a large enough effect; inconclusive = small, poorly fitted or top-dose-only effect; inactive = no such curve, though single readings can be large or run the other way;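 also: % is scaled to controls: 0 for no effect and ±100 for the full control effect; nearly all actives have a fitted effect of over 50% in size; the assay follows cell death caused by Vpr and the record does not say whether a fall means rescue or toxicity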
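Fission yeast strain RE007, carrying one chromosomally integrated HIV-1 vpr copy, was seeded at OD 0.01 in PMG+AL medium with 23 nL pinned compound. After 24 h at 30 °C and 99% humidity, viability was read by BacTiter-Glo luminescence.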
Cruzain inh Det: qHTS Assay for Promiscuous and Specific Inhibitors of Cruzain (with detergent) | purified cruzain, Z-FR-AMC fluorescence, 0.01% Triton | Potency, µM, without a hit: max response, negative = inhibition, actives largely listed as inhibitors | hit rate 0.43% among 200,000 | AID 1478, 2009;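 also: plate controls were neutral wells for no effect and buffer without enzyme for full effect; nearly all actives have a fitted effect of over 40% in size; top concentration of the series not given in the record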
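Cysteine protease activity tested under reducing, mildly acidic conditions (100 mM sodium acetate pH 5.5, 5 mM DTT) plus 0.01% Triton X-100. Cruzain 1.5 nM; substrate Z-FR-AMC 2 uM; 15 min compound preincubation at room temperature.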
An asterisk follows results filed as active; ? = inconclusive; . = no result given; & = joins results of further samples; [ ] = remark or other dose. Unless noted, calls follow the shape of the dose curve; as a rule, active = well fitted curve in the direction sought with a large enough effect; inconclusive = small, poorly fitted or top-dose-only effect, or another doubt; inactive = no such curve, though single readings can be large; an effect the other way counts as inactive or inconclusive. Potency is read from the fitted curve at half-maximal effect.

smiles	RE007 growth inh	Cruzain inh noDet	MARV entry inh	LASV entry inh	SARS PLP yeast	Cruzain inh Det	StopGo reporter	NS1 function inh
CC(C)OC(=O)/C(C#N)=C/c1cn(Cc2ccccc2)c2ccccc12	2.1%	-0.8%	-2.3%	-23.7%	7.1%	-7.3%	-23.0%	-2.5%
C#CCOCCOCCOCCNc1nc(N2CCN(C(=O)[C@H](C)n3cc(CCCN=C(N)N)nn3)CC2)nc(N2CCN(C(=O)[C@H](Cc3ccc(O)cc3)n3cc(CCO)nn3)CC2)n1	.	-17.8%	13.1%	3.9%	5.5%	?	.	-20.0%
COc1ccc(-c2oc3ccc(-c4ccc(OC)nc4)cc3c2C#CC2(O)CCCCC2)cc1	-12.6%	.	.	.	11.9%	.	-14.6%	17.4%
CCn1c(SCc2ccc(OC)cc2)nnc1-c1ccncc1	2.4%	-5.3%	-16.5%	-3.6%	7.6%	2.1%	.	-5.9%
COC(C[C@@H]1O[C@H]1[C@H](O)COCc1ccccc1)OC	-1.3%	.	.	.	1.1%	.	-9.1%	-0.1%
O=C(Nc1nc(-c2cccs2)c(C(=O)C(F)(F)F)s1)c1ccco1	-4.9%	.	.	.	-0.8%	.	-9.2%	5.5%
CCOc1ccc(NC(=O)CN(C)C(=O)c2ccc(C)o2)cc1OCC	-4.2%	.	?	?	-0.3%	.	-6.0%	-2.0%
COc1cc(Br)c(CC(=O)NNC(=O)c2ccc(F)cc2)cc1OC	6.8%	.	5.2%	12.7%	1.7%	.	-11.2%	.
O=C(Cc1cc(=O)[nH]c(=O)[nH]1)NCc1ccccc1	-3.9%	3.8%	-5.9%	-1.5%	1.5%	1.5%	-19.7%	8.1%
O=C(COC(=O)c1cc(Cl)ccc1O)NNC(=O)c1ccccc1F	13.9%	.	?	4.7%	2.3%	.	-5.7%	.
Cc1[nH]c(=O)[nH]c(=O)c1S(=O)(=O)Nc1ccc(F)c([N+](=O)[O-])c1	6.8%	.	.	.	2.7%	.	-18.1%	3.5%
Cc1ccc(OCC(=O)NCC(=O)Nc2ccc(F)c(F)c2F)c([N+](=O)[O-])n1	0.1%	-1.7%	0.8%	0.2%	11.3%	-6.8%	-7.0%	1.8%

Brought forward from above: four compounds, followed by the next part.
smiles	RE007 growth inh	Cruzain inh noDet	MARV entry inh	LASV entry inh	SARS PLP yeast	Cruzain inh Det	StopGo reporter	NS1 function inh
O=C(Cc1cc(=O)[nH]c(=O)[nH]1)NCc1ccccc1	-3.9%	3.8%	-5.9%	-1.5%	1.5%	1.5%	-19.7%	8.1%
O=C(COC(=O)c1cc(Cl)ccc1O)NNC(=O)c1ccccc1F	13.9%	.	?	4.7%	2.3%	.	-5.7%	.
Cc1[nH]c(=O)[nH]c(=O)c1S(=O)(=O)Nc1ccc(F)c([N+](=O)[O-])c1	6.8%	.	.	.	2.7%	.	-18.1%	3.5%
Cc1ccc(OCC(=O)NCC(=O)Nc2ccc(F)c(F)c2F)c([N+](=O)[O-])n1	0.1%	-1.7%	0.8%	0.2%	11.3%	-6.8%	-7.0%	1.8%
Cc1ccc(CSc2nnc3nc(C)cc(C)n23)cc1	-7.4%	-8.1%	?	20.2%	-0.5%	1.5%	-3.7%	-3.7%
O=C1Nc2ccc(F)cc2C12OCCO2	4.9%	.	1.1%[46.1 µM]	15.1%[46.1 µM]	-2.0%	.	-6.0%	1.3%
COc1ccc(C(C)NC(=O)C23CC4CC(CC(C4)C2)C3)cc1 (stereo not given)	8.6%	.	-0.4%	-19.0%	0.2%	.	-4.8%	11.3%
CCN(CC)C(=O)CSc1nsc(SCC(=O)N(CC)CC)c1C#N	11.7%	16.7%	22.6%[46.1 µM]	-20.0%	?	0.3%	6.7%	3.6%
O=c1c2[nH]c3cccc(Cl)c3c2ncn1Cc1ccncc1	23.3%	0.4%	?	-1.8%	-5.1%	1.2%	-17.9%	-7.1%
Cc1cc(OCC(=O)N2C[C@H]3C[C@@H](C2)c2cccc(=O)n2C3)c2c(C)cc(=O)oc2c1	0.8%	.	.	.	4.2%	.	-20.0%	-6.6%
COCC(C)n1c(C)cc(C(=O)COC(=O)CN=C2NS(=O)(=O)c3ccccc32)c1C (stereo not given)	2.0%	11.6%	30.0%	12.3%	5.0%	-4.6%	-4.9%	1.6%
CCOCCCn1c(=S)[nH]c2cc(C(=O)N3CCOCC3)ccc2c1=O	-2.4%	1.4%	-18.8%	3.6%	-1.5%	1.7%	1.7%	4.6%
O=C(NCc1cccs1)C1CC(=O)N(C2CCCC2)C1 (stereo not given)	7.6%	11.9%	0.0%	?	-2.8%	5.5%	-13.3%	-1.2%
CC1CCCCC1NC(=O)COc1ccc(-n2cnnn2)cc1 (stereo not given)	28.2%	-0.7%	22.4%	-7.3%	-2.2%	1.9%	-20.2%	0.3%
Cc1nn(CCCC(=O)NC2CCC(C)CC2)c(=O)c2nn(-c3ccccc3)c(C)c12 (stereo not given)	-12.3%	.	.	.	7.4%	.	-21.2%	1.1%
O=C(c1cc(=O)[nH]c2ccccc12)N1CCN(c2ccccc2)CC1	4.0%	.	.	.	-0.3%	.	-4.7%	3.2%

smiles	RE007 growth inh	Cruzain inh noDet	MARV entry inh	LASV entry inh	SARS PLP yeast	Cruzain inh Det	StopGo reporter	NS1 function inh
Cc1nc(N2CCN(C)CC2)[nH]c(=O)c1Cc1cccc2ccccc12	-8.7%	5.5%	-27.8%	-15.5%	15.6%	3.4%	?	?
O=C(Cc1ccccc1)NN=Cc1ccccc1	-14.5%	.	2.4%	12.4%[46.1 µM]	.	.	18.9%	.
COc1ccc(CCNC(=O)c2cc(S(=O)(=O)N(C)C)ccc2N2CCCC2)cc1	16.6%	.	14.7%[46.1 µM]	-15.6%	2.7%	.	9.3%	0.7%
CCC(=O)c1ccc(N2CCN(C(=O)c3cccc(F)c3)CC2)c(F)c1	0.9%	.	?	14.9%	1.2%	.	?	.
CCOc1ccc(S(=O)(=O)NCCC(=O)NC2CCCCC2)cc1	-2.2%	.	-0.4%	-6.2%[46.1 µM]	-1.8%	.	4.0%	.
Clc1ccc(CN2CCN(/N=C/c3cccnc3)CC2)cc1	-10.0%	.	-3.4%[46.1 µM]	-1.1%	1.5%	.	-19.6%	.
COc1ccc(S(=O)(=O)Nc2cc(S(=O)(=O)c3ccccc3)c(O)c(C)c2C)cc1	.	2.6%	1.3%[46.1 µM]	5.8%[46.1 µM]	.	-8.4%	3.0%	.
COC(=O)c1sccc1NC(=O)c1ccc(C)cc1	-3.2%	.	-0.2%[46.1 µM]	1.3%[46.1 µM]	-0.4%	.	-11.9%	-5.1%
Cc1ccc(-c2nn3nnnc3c3ccccc23)cc1C	7.2%	-6.4%	-0.2%	?	1.1%	3.4%	-8.4%	-6.6%
COC(=O)c1c(C(=O)OC)c(-c2ccc(C)cc2)n2c1CS(=O)C2 (stereo not given)	11.7%	5.0%	-10.2%	-1.6%	3.1%	-4.6%	12.7%	-8.5%
Cc1cccc(NC(=O)NCC(c2cccnc2)N2CCOCC2)c1 (stereo not given)	-0.5%	-2.3%	-2.9%	7.6%	17.8µM*	2.3%	14.1%	-0.2%
O=C(Nn1c(=S)[nH]c2ccccc2c1=O)c1ccncc1	-9.7%	0.3%	19.8%	-5.1%	-0.3%	2.6%	31.9%[activator]	3.9%

smiles	RE007 growth inh	Cruzain inh noDet	MARV entry inh	LASV entry inh	SARS PLP yeast	Cruzain inh Det	StopGo reporter	NS1 function inh
O=C(Nc1ccncc1)Nc1ccc(F)cc1F	-5.1%	?	20.8%	46.5%[14.3 µM]	-1.7%	-11.6%	18.7%	-9.7%
CCC(C)NC(=O)c1n[nH]c(=O)c2ccccc12 (stereo not given)	-9.2%	18.0%	?	-0.2%	-4.5%	-1.2%	-19.9%	3.0%
CCC1CCc2nc3sc(C(=O)Nc4ccc(C)cc4C)c(N)c3cc2C1 (stereo not given)	.	2.7%	1.4%[46.1 µM]	-15.0%[46.1 µM]	.	-3.3%	-17.3%	.
CC1CN(c2nc(Nc3ccccc3)nc(N)c2[N+](=O)[O-])CC(C)O1 (stereo not given)	44.1%	.	.	.	0.4%	.	?	8.2%
Cc1ccnc(NS(=O)(=O)c2ccc(NC(=O)c3ccc(S(=O)(=O)N4CCOCC4)cc3)cc2)n1	-19.6%	-6.8%	?	15.2%	-5.3%	-4.0%	-8.6%	-16.6%
CC(C)C(C(=O)NCC1CCCO1)N(Cc1cccs1)C(=O)CNS(=O)(=O)c1ccccc1 (stereo not given)	-10.5%	.	?	-8.0%	0.9%	.	-10.5%	-5.7%
Cc1ccc(S(=O)(=O)Oc2ccc(C3C4=C(CCCC4=O)OC4=C3C(=O)CCC4)cc2)cc1	24.3%	6.7%	?	13.5%	-3.9%	-3.4%	-9.7%	14.0%
Cc1ccc(-c2nnn(CC(=O)N(Cc3cccs3)C(C(=O)NC3CCCC3)c3ccco3)n2)o1 (stereo not given)	5.8%	3.8%	-19.2%&-19.2%	-11.4%	-3.6%	6.6%	3.4%	-1.1%
CCOC(=O)c1cnc(SCc2cccc3ccccc23)nc1N	10.9%	20.6%	16.2%	-2.7%	9.8%	-1.3%	-0.3%	-0.7%
COc1ccc(/C=C/C(=O)NCc2cnn(C)c2C)cc1COc1ccc(Br)cc1	7.7%	?	?	-24.2%	-7.8%	-1.9%	-26.1%	?
CC(C)NC(=O)c1ccc(-n2c(-c3ccccc3)cc3c2CCCC3)cc1	.	-0.3%	.	.	.	-1.6%	-13.5%	.
CCc1ccc(CCC(=O)Nc2ccc(S(N)(=O)=O)cc2)o1	3.7%	9.3%	?	3.2%	3.2%	13.2%	10.7%	-3.7%
